High-throughput results (PubChem BioAssay)
Mtb bLac sens: beta-lactam sensitization of Mtb H37Rv, H37Rv. M. tuberculosis H37Rv growth with meropenem, percent inhibition; hits of this screen are not shown here. inhibition, % at 25 µM. 330,000 tested, 0.27% active. AID 434955, 2010;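 active = about 74% or more and at least 40 points above the plate without the antibiotic, then above 30% in a dose series; inconclusive = first-round hits that could not be retested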;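 also: growth measured after seven days incubation then overnight dye step; 0% = bacteria only wells and 100% = bacteria with antibiotic; twin plates without the antibiotic show which effects depend on it; some results filed as inactive read as strong as hits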
Mtb H37Rv: M. tuberculosis H37Rv growth inhibitors, H37Rv strain (AID 1626). M. tuberculosis H37Rv growth inhibition; higher % means a stronger effect. one-dose inhibition, % at 10 µM; IC50 in µM for titrated hits. 220,000 tested, 0.95% active;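 active = confirmed in a dose series; inconclusive = inhibition above 80% but not taken into the dose series; inactive = below 80% or under 30% at every dose of the series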;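 also: bacteria incubated seven days before Alamar blue readout; 0% = bacteria only wells and 100% = bacteria with antibiotic wells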
YopH PTP inh: YopH tyrosine phosphatase inhibitors, primary screen, biochemical, fluorescence Ex485/Em525; 140,000 tested, 0.16% active; YopH tyrosine phosphatase [Yersinia enterocolitica]; inhibition, %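 (about 10 µM by stock and volumes)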;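 active = inhibition of 50% or more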;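 also: controls were vehicle for no effect and minimum signal wells for full effect; inactives centre near -20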
RecA splice inh: Mtb RecA intein splicing inhibitors, primary screen, biochemical, fluorescence, HTS | AID 2221, 2009 | Protein RecA (Mycobacterium tuberculosis (strain ATCC 25618 / H37Rv)), P9WHJ3 | 290,000 tested, 0.75% active | inhibition, %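 (about 9 µM by stock and volumes)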 | cell-free RecA intein splicing; in the data active = inhibition above about 30%; inconclusive = no clear call, values can overlap the other calls;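 also: 0% = vehicle wells and 100% = reference inhibitor control wells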
Target sequence (P9WHJ3 whole entry, looked up, canonical isoform): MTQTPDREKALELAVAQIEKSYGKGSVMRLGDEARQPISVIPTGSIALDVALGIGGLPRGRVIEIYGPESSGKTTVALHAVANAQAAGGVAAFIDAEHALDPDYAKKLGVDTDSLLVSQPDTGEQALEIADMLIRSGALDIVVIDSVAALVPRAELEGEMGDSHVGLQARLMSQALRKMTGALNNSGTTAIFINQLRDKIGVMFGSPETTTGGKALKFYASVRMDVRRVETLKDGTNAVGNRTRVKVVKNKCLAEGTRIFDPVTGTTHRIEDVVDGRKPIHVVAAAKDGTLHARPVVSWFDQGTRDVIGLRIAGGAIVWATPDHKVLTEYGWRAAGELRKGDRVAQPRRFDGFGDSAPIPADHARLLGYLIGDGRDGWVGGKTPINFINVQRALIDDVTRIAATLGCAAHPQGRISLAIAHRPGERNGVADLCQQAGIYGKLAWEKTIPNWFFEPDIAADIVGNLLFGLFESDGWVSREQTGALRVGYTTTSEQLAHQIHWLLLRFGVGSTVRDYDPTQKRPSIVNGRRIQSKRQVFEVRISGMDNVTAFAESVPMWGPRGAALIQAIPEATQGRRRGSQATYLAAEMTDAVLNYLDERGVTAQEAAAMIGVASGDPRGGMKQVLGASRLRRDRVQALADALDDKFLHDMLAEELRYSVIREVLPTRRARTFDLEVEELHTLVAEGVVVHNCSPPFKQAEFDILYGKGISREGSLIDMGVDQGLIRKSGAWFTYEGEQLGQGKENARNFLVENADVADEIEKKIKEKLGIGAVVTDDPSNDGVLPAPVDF
Arbovirus anti: antivirals against arbovirus infection, primary screen, cell-based, full library, 10K replicate subset; arbovirus infection cell-based antiviral screen; AID 1251, 2008; inhibition, % at 10 µM; 200,000 tested, 0.37% active;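 active = inhibition from about 30%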;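 also: bluetongue infection of BSR cells; cell survival read as ATP light after 72 h; 0% = infected wells without compound and 100% = uninfected wells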
Arbovirus anti repeat: recorded beside Arbovirus anti, whose call it bears; inhibition, %; measured here: 10K subset replicate screen; many hits read low in the repeat;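 first of two repeat runs on a subset; 0% = infected and 100% = uninfected wells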
The depositor's hits bear a star; u = inconclusive; x = not tested or not shown.

SMILES	Mtb bLac sens	Mtb H37Rv	YopH PTP inh	RecA splice inh	Arbovirus anti	others
COC(=O)c1cnc(Nc2ccc(Cl)cc2)c([N+](=O)[O-])c1	3	-9%	x	0.3	x
COc1ccc(/C(C)=N/NC(=O)CN(c2ccc(OC)cc2)S(=O)(=O)c2ccccc2)cc1	11	x	x	0.4	x
COc1ccc(-c2nn(CC(=O)Nc3ccc(Cl)c(Cl)c3)c(=O)c3ccccc23)cc1	13	8%	-26	-1.1	6
Cc1cccc(CCNC(=O)CN(C)S(=O)(=O)c2cnc[nH]2)c1	5	-1%	-15	-1.2	9
CCC(CC)C(=O)N1CCN(c2ccccc2)CC1	-3	5%	x	1.7	1
COc1ccc(-n2nc(C)c3c(=O)c4c([nH]c32)CCCC4)cc1	99	x	x	-3.0	x
COc1ccc(C2CC(c3ccc(C)o3)=NN2C(C)=O)cc1 (configuration not stated)	1	-4%	-30	-0.4	1
O=C1C=C(Nc2cccc(O)c2)CC(c2ccco2)C1 (configuration not stated)	-3	2%	-56	-0.8	1
O=C(CSc1nnc(Cc2ccccc2)o1)Nc1ccccc1	-5	-5%	x	-0.7	-4
CCCc1cc(C(=O)Nc2sc3c(c2C(=O)OCC)CCCC3)no1	4	2%	-2	-5.0	-2	Arbovirus anti repeat=2
O=C(CCc1nnc(CCCc2ccccc2)o1)NCCCC1CCCC1	97	8%	x	7.0	-16
CCn1c(=S)sc2c(=O)n(CC(=O)Nc3cccc(Br)c3)c(C)nc21	u	x	x	0.4	x
COc1ccc(C(=O)NNc2cc(C)nc(NNC(=O)c3ccc(OC)cc3)n2)cc1	-2	-6%	x	-3.3	0
CCOC(=O)C1CCN(S(=O)(=O)c2ccc(OC)c(C(=O)N3CCCCCC3)c2)CC1	1	x	x	-0.5	x
N/C(=N\OC(=O)CCCc1ccccc1)c1cccnc1	-5	14%	-31	-3.0	-7
Cc1ccc2c(c1)N(CC(=O)N1CCCCCC1)C(=O)C(C)O2 (configuration not stated)	0	x	x	-2.0	x
O=C(NN=C1CCN(Cc2ccccc2)CC1)c1cccc(S(=O)(=O)Nc2ccccc2Cl)c1	-6	1%	-39	2.2	1
COCC1CCCN(C(=O)c2cc(COc3ccc(C(C)=O)cc3)on2)C1 (configuration not stated)	2	x	x	2.8	x
Cc1cc(C)cc(NC(=O)c2sc3nc4n(c(=O)c3c2C)CCC4)c1	17	x	x	-6.3	x
Cc1noc(C)c1S(=O)(=O)N(CC(=O)N1CCn2c1nc1ccccc12)c1ccc(C(C)C)cc1	5	-2%	-59	x	-5
COc1ccc(-n2ncc3c2CC(C)(C)CC3NC(=O)CCN2CCCCC2=O)cc1 (configuration not stated)	2	x	x	-0.4	x
CN(C)S(=O)(=O)c1ccc(N2CCCC2)c(C(=O)N2CCN(S(=O)(=O)c3ccc(F)cc3)CC2)c1	-7	x	x	-1.2	x
COCC(=O)OCC(=O)Nc1cc([N+](=O)[O-])ccc1Cl	x	4%	x	x	-1
Cc1nnc(NC2=NCCC2)s1	-7	-16%	-54	-0.3	2
COc1cc(CN2CCCC(C(=O)c3ccc4c5c(cccc35)CC4)C2)cc(OC)c1O (configuration not stated)	22	-2%	x	3.5	4
O=C(N/N=C1\CC(c2ccccc2)Oc2ccccc21)c1ccc(O)cc1 (configuration not stated)	8	x	x	1.7	x
O=C(CCNC(=O)Cn1ccc2ccccc2c1=O)NCc1ccccn1	-5	1%	x	5.1	5
Cn1c2ccccc2c2cc(C(=O)NNS(=O)(=O)c3ccc(F)cc3)sc21	19	-3%	2	6.9	-15
CCC(C)[C@H](N)c1cn([C@@H](Cc2ccc(O)cc2)C(=O)N2CCNCC2)nn1 (some centres not stated)	-4	-15%	x	-1.6	8
COc1ccc(OC)c(NC(=O)CSc2nnc(-c3ccco3)o2)c1	u	x	x	2.2	x
NS(=O)(=O)c1ccc(CCNC(=O)c2ccc[nH]c2=S)cc1	-1	x	x	-2.9	x
COc1ccc(CC(=O)Nc2cccc(SC)c2)cc1OC	x	1%	x	-3.5	1
O=C(C1=C[C@@H](c2ccc(C(F)(F)F)cc2)C[C@@H](OCCCCO)O1)N1CCCCCCC1	-7	-7%	x	3.9	x
CN(C)C(=S)Nc1cccc(-c2n[nH]c(=S)o2)c1	-7	0%	x	-1.3	1
COc1ccc(C2Oc3ccccc3C3=C2C(c2cccs2)n2ncnc2N3)cc1 (configuration not stated)	85	7%	-10	-0.7	-12
CCOC(=O)C1(CCc2ccccc2)CCN(CC(O)CO)CC1 (configuration not stated)	3	x	x	-2.5	x
C=CCNC(=O)NC(=O)COC(=O)CC(NC(N)=O)c1ccc(Cl)cc1 (configuration not stated)	-4	-4%	-30	0.6	6
O=c1oc2ccccc2c2nccnc12	-1	0%	-21	-2.3	8
CCCCNc1c(-c2ccc(SC3CCCCC3)c(OC)c2)nc2ccc(Cl)cn12	100	x	x	-11	x
O=C(NC1CCN(Cc2ccc3ccccc3c2)CC1)c1ccccc1	-7	x	x	-0.9	x
O=C(NCCN1CCN(Cc2ccccc2)CC1)Nc1cc(Cl)cc(Cl)c1	0	0%	x	2.2	x
COC(=O)c1c(C)oc(C)c1S(=O)(=O)NCc1cccs1	-8	-1%	x	-0.5	x
Cc1cc(OCCCCCN2CCCC2)ccc1Cl	-4	-6%	x	2.0	-18
O=C(COC(=O)CCC(=O)c1ccc(F)cc1)NCc1ccco1	-5	-3%	x	0.9	8
CCc1cc(=O)oc2c3c(cc(OCC(=O)NCc4ccccn4)c12)OC(C)(C)CC3	-2	x	x	7.3	x
CC(C)(C)NS(=O)(=O)c1ccc2[nH]c3c(c2c1)CCCCC3	5	x	x	1.7	x
CC(C)(C)OC(=O)N1CCC(CNC(=O)c2ccc(F)cc2F)CC1	-4	12%	x	-1.1	x
CCc1ccccc1N1C(=O)[C@@H]2Cc3ccccc3CN2C1=O	-7	1%	x	-0.6	x
C=CCSc1nc(O)c(C2OC(=O)c3c2ccc(OC)c3OC)c(=O)n1-c1ccccc1 (configuration not stated)	-10	3%	x	-0.1	x
CCOc1ccc2nc(NC(=O)C3(C)CC3(Br)Br)sc2c1 (configuration not stated)	90	x	x	6.3	x
O=C(O)CCCc1nc(-c2ccccc2)no1	7	-3%	-32	-1.5	4
Cc1ccnc(NC(=O)CCC(=O)N(CC(=O)NCc2ccccc2)c2ccc3c(c2)OCO3)c1	-6	-6%	4	-0.1	-5
CC(C)(C)NC(=O)C(c1cccs1)N(C(=O)C(=O)NC1CCCC1)c1ccccc1F (configuration not stated)	-3	-1%	x	-0.6	-9
COc1ccc(NS(=O)(=O)c2ccc(NC(=O)c3cnn4c(C(F)F)cc(-c5ccc(C)cc5)nc34)cc2)cc1	x	6%	-75	x	-5
COCCNC(=O)c1cc(-c2cccnc2)nc2ccc(Br)cc12	-2	2%	10	0.7	8
CC(=O)NN1C(=O)c2ccc3c4c(ccc(c24)C1=O)C(=O)N(NC(C)=O)C3=O	65	x	x	-41	x
COc1ccc(NC(=O)C2CCCN(c3cnccn3)C2)c(OC)c1 (configuration not stated)	1	x	x	1.5	x
CCOc1ccccc1NC(=O)N1CCCC1C(=O)Nc1ccc(NC(C)=O)cc1 (configuration not stated)	5	-2%	1	-2.2	-1
COc1ccc(-c2ccc(SCc3ccccn3)nn2)cc1OC	-2	-3%	x	1.6	-9
COc1ccccc1N1CCN(Cc2nc(-c3ccc(F)cc3)oc2C)CC1	-2	4%	x	0.7	13

6 entries already listed, ordered by length of the SMILES, largest number first:
SMILES	Mtb bLac sens	Mtb H37Rv	YopH PTP inh	RecA splice inh	Arbovirus anti	others
COc1ccc(NS(=O)(=O)c2ccc(NC(=O)c3cnn4c(C(F)F)cc(-c5ccc(C)cc5)nc34)cc2)cc1	x	6%	-75	x	-5
CC(=O)NN1C(=O)c2ccc3c4c(ccc(c24)C1=O)C(=O)N(NC(C)=O)C3=O	65	x	x	-41	x
CC(C)(C)NS(=O)(=O)c1ccc2[nH]c3c(c2c1)CCCCC3	5	x	x	1.7	x
CCc1ccccc1N1C(=O)[C@@H]2Cc3ccccc3CN2C1=O	-7	1%	x	-0.6	x
COCCNC(=O)c1cc(-c2cccnc2)nc2ccc(Br)cc12	-2	2%	10	0.7	8
COC(=O)c1c(C)oc(C)c1S(=O)(=O)NCc1cccs1	-8	-1%	x	-0.5	x

Other compounds follow.
SMILES	Mtb bLac sens	Mtb H37Rv	YopH PTP inh	RecA splice inh	Arbovirus anti	others
COC(=O)CC1C(=O)NCCN1C(=O)CSc1nc2ccccc2o1 (configuration not stated)	-2	1%	x	0.5	6
CCn1c(SCC(=O)Nc2cccc(NC(=O)c3ccco3)c2)nnc1-c1cccs1	0	-2%	-34	1.1	0
CC(NC(=O)COC(=O)/C=C/c1ccc([N+](=O)[O-])cc1)c1ccccc1 (configuration not stated)	-2	5%	-26	-1.8	-5
O=Cc1ccc(Oc2cc(-c3ccccc3)nc(-c3ccccc3)n2)cc1	9	16%	-44	-0.2	-20
CS(=O)(=O)N(CC(=O)NCc1ccncc1)Cc1ccc(Cl)cc1	x	-1%	31	x	-4
CC(C)(C)c1cnnn1-c1ccc(-c2csc(N)n2)cc1	-2	-2%	-51	-1.3	6
CC(NC(=O)Cn1c(=O)[nH]c2ccsc2c1=O)C12CC3CC(CC(C3)C1)C2 (configuration not stated)	3	6%	-11	-0.6	3
CC(C)Cc1nnc(NC(=O)CCC(=O)N2CCN(Cc3ccc(Cl)cc3)CC2)s1	11	x	x	-1.8	x
Cn1c(=O)c2c(nc(NCCc3ccccc3)n2Cc2ccc(F)cc2)n(C)c1=O	-7	5%	-34	0.7	12	Arbovirus anti repeat=1
O=c1cc(O)nc(SCc2ccc(Cl)cc2)[nH]1	4	-8%	-14	3.4	-1
Cc1ccc(C)c(NC(=S)N2CCCC2)c1	-7	x	x	1.0	x
COc1ccc(-n2nc(C(N)=O)nc2-c2ccccc2)cc1	-11	x	x	0.7	x
Cc1cccc2[nH]c(CN(C)Cc3nc(CC4CC4)no3)nc12	-2	4%	x	0.9	12
O=C(Nc1ccc(-c2ccc3nncn3n2)cc1)C1CCCC1	18	26%	x	2.2	8
Cc1ccccc1C(=O)N1CCN(c2ccccn2)CC1	-17	-2%	37	0.5	-7
O=C(NCCCn1ccnc1)c1cc2nc(-c3ccc(Br)cc3)cc(C(F)(F)F)n2n1	92	6%	-8	-0.4	-30
O=C(NCCO)C(O)C(O)C(=O)NCCO (configuration not stated)	0	-2%	x	-4.5	0
O=C(CN(c1ccc(F)cc1)S(=O)(=O)c1ccc2c(c1)OCCO2)Nc1ccc2c(c1)OCO2	-2	75%	-30	-0.8	1
CCOC(=O)N/N=C/c1c(C)nn(-c2ccccc2Cl)c1Cl	4	8%	-14	-0.7	-7
CC(C)C(=O)NC(=S)N(Cc1ccccc1)Cc1ccccc1	59	14%	1	x	8
O=C(CCc1nc2ccccc2c(=O)[nH]1)NNC(=O)c1cccc(Cl)c1	-6	x	x	1.7	x
COc1ccc(N(C(C)C(=O)Nc2ccc(S(=O)(=O)N3CCCCC3)cc2)S(C)(=O)=O)cc1 (configuration not stated)	-7	x	x	-1.0	x
Cc1c(N2C(=O)/C(=C/c3cccc4ccccc34)SC2=S)c(=O)n(-c2ccccc2)n1C	2	-9%	-43	0.6	x
CCNc1c(NC(=O)c2cccs2)c(=O)oc2ccccc12	-3	x	x	0.5	x
COc1ccc(N2CC(C(=O)N[C@H](C(=O)NC3CCCC3)C(C)C)CC2=O)cc1 (some centres not stated)	-4	x	x	1.5	x
O=C(NCc1ccccc1)C(c1ccccn1)N(C(=O)c1csnn1)c1ccccc1F (configuration not stated)	-1	x	x	1.0	x
C=CCn1c(=S)[nH]c2scc(-c3cccs3)c2c1=O	x	-8%	x	0.9	3
CC(C)c1cccc(C(C)C)c1OCCCCN1CCCC1	9	10%	-7	x	9
CC1=C(C(=O)Nc2ccccc2)C2(CCCCC2)C(C#N)=C(S)N1	3	-3%	-20	3.2	3
Nc1n[nH]c(-c2cccc([N+](=O)[O-])c2)n1	1	2%	-35	-0.1	-8
Cc1ccc(NC2CCCN(C(=O)c3cccc4nccnc34)C2)cc1C (configuration not stated)	-16	x	x	-2.9	x
Nc1ccc(C(=O)OC2CCOC2=O)cc1[N+](=O)[O-] (configuration not stated)	0	-4%	-16	2.5	1
Cc1cc(C)n(CCN(C)C(=O)CCc2nnc(CCC3CCCCC3)o2)n1	-10	-10%	x	-2.3	0
Cc1ccc2[nH]c(=O)c(CN(Cc3ccccc3)C(=S)NCCCN(C)C)cc2c1	-10	7%	x	1.4	-27

An excerpt; rates above refer to the full screens.
